Assay outcomes from PubChem.
VACV mCherry inh – qHTS for Stage-Specific Inhibitors of Vaccinia Orthopoxvirus: mCherry Reporter Primary qHTS | Vaccinia virus mCherry reporter infection, fluorescence; about a quarter of the inactives have no number | Potency, µM (series often up to 36.5 µM), for inactives: at the highest dose activity change, negative = inhibition, most hits filed as inhibitors | 310,000 compounds, 0.63% hits | AID 720579, 2013; active = well fitted inhibition curve with a large enough effect; inconclusive = small, poorly fitted or top-dose-only effect; inactive = no such curve, though single readings can be large or run the other way; tested in A549 cells; note: nearly all actives have a fitted effect of over 35% in size; inactives centre near -10
VACV Venus inh – qHTS for Stage-Specific Inhibitors of Vaccinia Orthopoxvirus: Venus Reporter Primary qHTS; Vaccinia virus Venus reporter expression, fluorescence; Potency, µM (highest dose often 36.5 µM), without a hit: at the top dose activity change, negative = inhibition, actives largely listed as inhibitors; 330,000 compounds, 0.46% hits; AID 720580, 2013; active means well fitted inhibition curve with a large enough effect; inconclusive means small, poorly fitted or top-dose-only effect; inactive means no such curve, though single readings can be large or run the other way; tested in A549 cells; note: nearly all actives have a fitted effect of over 30% in size; inactives centre near -10
* marks the source's active call; other numbers are inactive results; i = inactive; ? = inconclusive; . = no result given; & = joins results of further samples; [ ] = another dose, or the depositor's remark. % is set by controls: 0 for no effect and ±100 for the full control effect; potency is the fitted concentration of half-maximal effect.

SMILES	VACV mCherry inh	VACV Venus inh
NC(=O)CC(NC(=O)Cc1ccc(Cl)cc1)c1ccc(N2CCC(Cc3ccccc3)CC2)c([N+](=O)[O-])c1 (stereo not given)	?	?
Cc1ccc2c(c1)-c1nc(-c3ccc4c(c3)NC(=O)CO4)cc(-c3ccccc3)c1CO2	-21%	-28%
Cc1ccc(C)c(NC(=O)CSc2nc(=O)n(Cc3ccccn3)c3c2CCC3)c1	-23%	-2%
NC(=O)CSc1nnc(-c2ccccc2Br)n1-c1cccc(C(F)(F)F)c1	-29%	-14%
CCOC(=O)c1ccccc1NC(=O)COC(=O)C1CC(=O)N(c2ccc3c(c2)OCCO3)C1 (stereo not given)	-14%	-8%
Cc1ccc(C(=O)COC(=O)C(C)N2C(=O)C3C4CCC(C4)C3C2=O)cc1C (stereo not given)	i	-11%
Cc1c(C#N)c2ccccc2n1CC(=O)NCCc1c[nH]c2ccccc12	?	-22%
CCCCC(=O)Oc1ccccc1C(=O)O	-11%	-3%
O=C(Nc1cc(Cl)cc(Cl)c1)c1ccc(F)c(S(=O)(=O)NCc2ccccc2Cl)c1	-23%	-21%
Oc1cccc(/C=C/c2ccc3cccc(O)c3n2)c1	?	-23%
Cn1nc(-c2ccccc2)nc1-c1ccccc1	-6%	-18%
O=C(O)CCC(=O)Nc1ccc(-n2ccc(C(F)(F)F)n2)cc1	i	-6%
O=c1c2ccccc2nc(-c2cccs2)n1-c1ccc2ccccc2c1	-1%	-10%
CCc1ccc(Nc2n[n+](-c3ccccc3)c(-c3ccc(N(CC)CC)cc3)s2)cc1	?	11µM*
Cc1cccc(NC(=O)CSCC(=O)Nc2cc(Cl)ccc2N2CCN(C)CC2)c1	?	-23%
CCOc1ccc(NC(=O)C[n+]2ccc(N(C)C)cc2)cc1	-25%	-24%
CC(=O)/C(C#N)=C1\NC(=O)C(Cc2ccc(C)c(C)c2)S1 (stereo not given)	16µM*	95%[activator]
Cc1ccc2oc(=O)c3cnn(CC(=O)N4CCN(c5cc(Cl)ccc5C)CC4)c3c2c1	1%	0%
Cc1ccccc1OCc1nc(-c2ccc(NC(=O)c3ccco3)cc2)no1	.	-30%
c1cc(-c2cc3cc4c(cc3cn2)OCO4)cs1	i	-13%
Nc1ccc(C(=O)Nc2nc3ccccc3s2)cc1	12%	-4%
CC(C)(C)OC(=O)n1cccc1/C=C1\c2ccccc2C(=O)N1c1ccccc1	?	-4%
COc1ccc(C(C)(NC(C)=O)c2nc(-c3cnc4ccccc4c3)cs2)cc1 (stereo not given)	i	-1%
CCOc1ccccc1CNC(=O)C1CCCN(S(=O)(=O)c2ccc3c(ccn3C)c2)C1 (stereo not given)	-18%	-13%
CC(C)c1ccc(CNc2ccc([N+](=O)[O-])cn2)cc1	-17%	?
O=C(CNC1CCCCCC1)Nc1ccc(S(=O)(=O)NC2CC2)cc1	-17%	-11%
Oc1ccc(C[C@H]2CNC(=S)N2CC2CCCN2C[C@H](Cc2ccccc2)N2C[C@H](Cc3ccc(O)cc3)N(CCc3ccccc3)C2=S)cc1 (stereo not given in full)	?	?
Cc1ccc(NC(=O)/C=C/c2ccco2)cc1F	?	-20%
Cc1ccc(C)c(NC(=O)c2cc(S(=O)(=O)NCc3ccccc3)ccc2F)c1	-15%	-17%
CC1(Cc2ccccc2OC(F)(F)F)C(=O)Nc2ccc(-c3ccsc3)cc21 (stereo not given)	i	-13%
O=C(COC(=O)c1ccccc1OCc1ccc(Cl)cc1)NC1CC1	i	-4%
C#CCOCCOCCOCCNc1nc(N2CCN(C(=O)[C@H](C)n3cc(CCC(=O)O)nn3)CC2)nc(N2CCN(C(=O)[C@H](Cc3ccc(O)cc3)n3cc(CCO)nn3)CC2)n1	-6%	-1%
O=[N+]([O-])c1c(Nc2ccc(Br)cc2)ccc2nonc12	-11%	0%
[O-][n+]1c2c(c3c4non(O)c4ccc31)CCCC2	-4%	-2%
CCOC(=O)c1cc(S(=O)(=O)Nc2ccc(C)cc2Cl)[nH]n1	-12%	5%
CCCCCc1ccc(-c2ccc(=O)[nH]n2)cc1	-15%	0%
Cc1ccc(NC(=O)Cn2cccc2C2=NC(c3ccccc3)CO2)c(C)c1 (stereo not given)	-2%	-2%
Cc1cc(C)c[n+](-c2[nH]c(=O)sc2/C=N/NC([S-])=Nc2ccccc2)c1	-8%	-5%
Fc1cccc(Cl)c1Cn1nnc2c(N3CCC4(CC3)OCCO4)ncnc21	-14%	-8%
Cc1cccc(N(CC(=O)NCCC2=CCCCC2)S(C)(=O)=O)c1C	-7%	-12%
CCc1ccc(-n2nc(CO)c(C(=O)NCCCCc3ccccc3)n2)cc1	-13%	-12%
O=C(Nc1cccc([N+](=O)[O-])c1)Nc1cccc([N+](=O)[O-])c1	?	?
COc1ccc(S(=O)(=O)NCC(c2ccco2)N2CCN(c3ccc(F)cc3)CC2)cc1C (stereo not given)	-22%	-19%
O=C(NCc1ccccc1)c1ccc2c(=O)n3c(nc2c1)CCCCC3	-5%	-15%
Cc1cccc(C)c1NC(=O)C(c1ccccc1F)n1c(=O)c(-c2cc3ccccc3[nH]2)nc2ccccc21 (stereo not given)	?	?
CCC(C)[C@H](NC(=O)Nc1ccc(C(C)=O)cc1)C(=O)OC (stereo not given in full)	.	-8%
COc1ccc(-c2oc3ccccc3c(=O)c2OCC(=O)O)cc1	i	-12%
Cc1ccc(S(=O)(=O)N(C)C)cc1NC(=O)C(C)N(C)CCOc1ccc(Cl)cc1 (stereo not given)	-20%	-6%
CC1CCCN(C(=S)Nc2ccc3nc4n(c(=O)c3c2)CCCCC4)C1 (stereo not given)	19%	-14%
O=C(Nc1ccccn1)c1ccc(Cl)c(S(=O)(=O)N2CCCC2)c1	-5%	-1%
CCOC(=O)C1=C(CN2CCCCCC2)NC(=O)NC1c1cccc([N+](=O)[O-])c1 (stereo not given)	-22%	-13%
COc1ccc(N2CCN(C(=O)CN3C(=O)NC(C)(c4ccc5ccccc5c4)C3=O)CC2)cc1 (stereo not given)	-18%	?
O=C(O)CCC1(C(=O)O)OCCc2ccccc21 (stereo not given)	i	0%
COCCN(Cc1cc2cc(C)c(C)cc2nc1Cl)C(=O)Nc1ccccc1	-11%	1%
CCCCCc1ccc(-c2cn(Cc3ccc(C)cc3)nn2)cc1	-10%	-8%&-7%
O=C(Nc1ccccc1F)c1cnc(N2CCCCC2)c2ccccc12	i	-17%
Cc1cccc(C(=O)Nc2cc(NC(=O)c3cccs3)ccc2C)c1	-14%	-23%
CCN(CC)S(=O)(=O)c1ccc(N/N=C/c2ccc(O)cc2O)nc1	4µM*	?
CC(C)(C)NC(=O)C1CCN(C(=O)c2ccco2)CC1	-1%	5%
CC(=O)c1ccc(N2CCN(C(=O)c3cc(-c4cccnc4)nc4ccc(Br)cc34)CC2)cc1	1%	1%
(further entries)
SMILES	VACV mCherry inh	VACV Venus inh
Cc1ccc(C)c(OC(=O)c2cccc(S(=O)(=O)N3CCN(C)CC3)c2)c1	-10%	2%
CCOC(=O)[C@]12CCCC=C1N(CCC1=CCCCC1)C(=O)[C@H](CC(=O)NCc1cccs1)C2	i	-20%
Cc1ccc(F)cc1NC(=O)Nc1cc(C(C)(C)C)nn1C	-11%	-11%
CC(C)c1nn2c(=O)cc(COC(=O)c3ccccc3Cl)nc2s1	-1%	3%
COc1ccc(/C=C2/C(=O)OCc3cc(OC)c(OC)cc32)cc1	-11%	?
CN(c1ccccc1)c1ccc([N+](=O)[O-])c2nonc12	-25%	14%
COc1ccc(C(=O)Nc2ccc(NC(=O)c3ccccn3)cn2)cc1	-23%	-6%
C#CCOc1ccc(C2C3=C(CCCC3=O)N(CC(=O)O)C3=C2C(=O)CCC3)cc1Br	-20%	1%
COc1cccc(CNC(=O)CCCn2c(=O)c3cccn3c3ccc(F)cc32)c1OC	-9%	-7%
O=C(O)/C=C\C(=O)Nc1ccccc1C(=O)NC1CCCCC1	i	-15%
CCCSc1nc2[nH]ncc2c(=O)[nH]1	-7%	-10%
COc1ccc(S(=O)(=O)N2CCCCCC2)cc1C(=O)N(C)Cc1ccco1	-19%	-15%

A second format for two compounds above:
smiles | VACV mCherry inh | VACV Venus inh
COc1cccc(CNC(=O)CCCn2c(=O)c3cccn3c3ccc(F)cc32)c1OC | -9% | -7%
COc1ccc(C(=O)Nc2ccc(NC(=O)c3ccccn3)cn2)cc1 | -23% | -6%

Sorted by SMILES length (largest number first): part of the list above
SMILES	VACV mCherry inh	VACV Venus inh
CCOC(=O)[C@]12CCCC=C1N(CCC1=CCCCC1)C(=O)[C@H](CC(=O)NCc1cccs1)C2	i	-20%
COc1ccc(/C=C2/C(=O)OCc3cc(OC)c(OC)cc32)cc1	-11%	?
O=C(O)/C=C\C(=O)Nc1ccccc1C(=O)NC1CCCCC1	i	-15%

Given with two lines to a compound: part of the list above
Values run as follows: VACV mCherry inh | VACV Venus inh
Cc1ccc(F)cc1NC(=O)Nc1cc(C(C)(C)C)nn1C
→ -11% | -11%
CC(C)c1nn2c(=O)cc(COC(=O)c3ccccc3Cl)nc2s1
→ -1% | 3%
COc1ccc(/C=C2/C(=O)OCc3cc(OC)c(OC)cc32)cc1
→ -11% | ?
CN(c1ccccc1)c1ccc([N+](=O)[O-])c2nonc12
→ -25% | 14%

Continuation:
SMILES	VACV mCherry inh	VACV Venus inh
Cc1ccc(N(C(=O)c2csnn2)C(C(=O)NC2CCCCC2)c2ccccn2)c(C)c1 (stereo not given)	i	2%
CC1(C)CC[C@]2(C(=O)O)C(O)C[C@@]3(C)C(=CCC4[C@@]5(C)CCC(O)C(C)(C)C5CC[C@@]43C)C2C1 (stereo not given in full)	i	0%
CC(C)(C)OC(=O)[C@H](Cc1ccccc1)NC(=O)c1[nH]cnc1C(=O)Nc1ccccc1F	-21%	?
CN1CCN(c2ccc(CNC(=O)C3(C)Cc4c(-c5ccc6c(c5)OCO6)ccnc4O3)cc2)CC1 (stereo not given)	-6%	-12%
O=C1c2ccccc2C(Nc2ccc(S(=O)(=O)N3CCCCC3)cc2)N1c1ccccn1 (stereo not given)	5%	-8%
COC(=O)c1ccc(C(=O)Nc2cc(Cl)ccc2Cl)cc1NC(=O)c1ccc(N(C)C)cc1	i	-11%
COCCCn1c(SC(C)C(=O)NC2CC2)nc2ccccc2c1=O (stereo not given)	-8%	-10%
Cc1nc(-c2ccc(F)cc2)sc1CCNC(=O)c1ccco1	i	1%
CCOc1ccccc1NC(=O)CCn1c(-c2ccc(OC)cc2)cc(C(C)=O)c1C	-6%	1%
Cc1nnc(-c2ccc(Oc3ccc(Cl)cc3)c([N+](=O)[O-])c2)o1	-23%	-14%
Cc1ccccc1OCC(O)CN1CCC(C)CC1 (stereo not given)	i	3%
COc1ccc(OCCN2CCN(S(=O)(=O)c3ccccc3C#N)CC2)cc1	i	?
COC(=O)c1sccc1NC(=O)Cn1cnc2c1c(=O)n(C)c(=O)n2C	.	-5%
COc1c(C)cc(S(=O)(=O)Nc2cccc(-c3ccc(N4CCOCC4)nn3)c2)c(C)c1C	-3%	-10%
CC1(c2ccccc2Cl)NC(=O)N(CC(=O)Nc2ccc(N3CCCCC3)cc2)C1=O (stereo not given)	-1%	-17%
O=C1NC(=Nc2ccccc2)SC1Cc1cccc(Cl)c1Cl (stereo not given)	i	-13%
CC(=O)c1cccc(Oc2ncccn2)c1	i	-4%
COc1ccc(-c2csc(C(C)(O)c3cccnc3)n2)cn1 (stereo not given)	-5%	1%
COC(=O)c1ccsc1NC(=O)CCS(=O)(=O)c1ccc(Cl)cc1	?	-30%
CCCOc1ccc(C2c3c(oc4ccccc4c3=O)C(=O)N2CCN(CC)CC)cc1OC (stereo not given)	.	-1%
COc1ccccc1CNc1cc(-c2ccccc2)ccc1OC	i	-5%
Cc1ccccc1-c1csc(C(C)(O)c2cccnc2)n1 (stereo not given)	29%	-12%
N/C(Cc1cccc2ccccc12)=N\OC(=O)c1cccs1	-2%	-8%
O=C(NCCS(=O)(=O)N1CCN(c2cccc(Cl)c2)CC1)c1cc(=O)c2ccccc2o1	-14%	-14%
Cc1nn(CC(=O)NCC2CCCO2)c(=O)c2ccccc12 (stereo not given)	i	-14%
CN1C(=S)SC(N(O)C=C2C=CC(=O)C=C2)C1(C)C (stereo not given)	.	-11%
Cc1nnc(NC(=O)CCC(=O)N2CCN(CCOc3cccc4ccccc34)CC2)s1	-20%	0%
O=C(NC1CCCC1)C(c1c(F)cccc1Cl)N(C(=O)c1csnn1)C1CC1 (stereo not given)	?	2%
Cn1nc(-c2ccccc2)cc1NC(=O)[C@@H]1O[C@H](CO)[C@H](O)[C@H](O)[C@H]1O	-1%	1%
Cc1noc(C)c1CSCC(=O)N(CCC(C)C)c1c(N)n(Cc2ccccc2)c(=O)[nH]c1=O	i	-11%
COc1ccccc1C1CC(c2cccs2)=NN1C(=O)CCC(=O)O (stereo not given)	i	0%

Nothing new here: an excerpt of the list.
SMILES	VACV mCherry inh	VACV Venus inh
Cc1nn(CC(=O)NCC2CCCO2)c(=O)c2ccccc12 (stereo not given)	i	-14%
CN1C(=S)SC(N(O)C=C2C=CC(=O)C=C2)C1(C)C (stereo not given)	.	-11%
Cc1nnc(NC(=O)CCC(=O)N2CCN(CCOc3cccc4ccccc34)CC2)s1	-20%	0%
O=C(NC1CCCC1)C(c1c(F)cccc1Cl)N(C(=O)c1csnn1)C1CC1 (stereo not given)	?	2%
